KCNQ2 block = KCNQ2 potassium channel inhibitors, primary screen, cell-based, CHO-K1, FluxOR thallium flux, B-score (AID 2156). B-score at 10 µM. 310,000 compounds, 1.1% hits. 20 min; stronger effect = lower value; only compounds with negative scores are shown here; some inactives read as strong as hits. O88943;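 active = fluorescence ratio B-score at most minus 3 library SDs, with starting brightness B-score within 2 library SDs, cut at about -5.5 in these data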
Target sequence (O88943 whole entry, looked up): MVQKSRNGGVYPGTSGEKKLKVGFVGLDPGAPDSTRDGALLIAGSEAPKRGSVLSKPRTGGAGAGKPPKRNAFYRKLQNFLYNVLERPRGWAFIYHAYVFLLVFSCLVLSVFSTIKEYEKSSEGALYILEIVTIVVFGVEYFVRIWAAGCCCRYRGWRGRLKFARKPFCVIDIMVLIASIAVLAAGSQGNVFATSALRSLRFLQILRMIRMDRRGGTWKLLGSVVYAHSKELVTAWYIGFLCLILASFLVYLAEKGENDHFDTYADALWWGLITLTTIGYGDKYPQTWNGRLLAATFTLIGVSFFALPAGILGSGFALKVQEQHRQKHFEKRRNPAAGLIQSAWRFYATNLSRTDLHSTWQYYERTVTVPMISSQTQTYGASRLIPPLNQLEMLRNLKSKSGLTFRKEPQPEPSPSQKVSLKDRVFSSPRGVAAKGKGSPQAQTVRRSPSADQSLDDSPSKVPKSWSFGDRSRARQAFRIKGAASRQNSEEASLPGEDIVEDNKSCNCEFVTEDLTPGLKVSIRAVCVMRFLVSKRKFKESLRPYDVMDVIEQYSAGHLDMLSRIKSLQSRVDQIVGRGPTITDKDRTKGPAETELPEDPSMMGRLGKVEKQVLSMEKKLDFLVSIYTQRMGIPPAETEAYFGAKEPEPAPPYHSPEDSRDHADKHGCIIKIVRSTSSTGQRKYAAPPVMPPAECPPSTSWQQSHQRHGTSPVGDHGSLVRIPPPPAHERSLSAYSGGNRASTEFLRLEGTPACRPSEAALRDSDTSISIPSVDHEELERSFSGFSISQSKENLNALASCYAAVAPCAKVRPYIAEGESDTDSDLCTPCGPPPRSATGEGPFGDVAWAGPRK
KCNQ2 block baseline = further read-out of KCNQ2 block, marked with its call; B-score; measured here: initial fluorescence intensity artifact check;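 brightness before thallium and not channel activity; 0 = typical well and far values either way flag optical interference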
Starred values were filed as active, the others as inactive; i = inactive. A portion of the library, so the mix of outcomes need not match the whole.

KCNQ2 block | KCNQ2 block baseline | compound
i | 15.9 | N#C/C(=C/c1ccc(N2CCOCC2)o1)C(=O)N1CCOCC1
i | -0.05 | O=C(NCCCc1ccc(F)cc1)C1CCC(=O)N(CCN2CCOCC2)C1 (configuration not stated)
i | 1.38 | COc1ccc(CN(C)CC(=O)Nc2ccc(Cl)cc2C(F)(F)F)c(OC)c1
i | 0.15 | Cc1ccc(-c2nnc(Cc3ccc([N+](=O)[O-])cc3)o2)cc1
i | -2.41 | COc1ccc(-n2c(-c3ccc(Cl)cc3Cl)n[nH]c2=S)c(OC)c1
i | 1.97 | Cc1cc2nccc(-c3ccco3)n2n1
i | 1.55 | Cc1ccc2oc(C(=O)Nc3ccc(S(=O)(=O)Nc4onc(C)c4C)cc3)cc(=O)c2c1
i | -1.94 | FC(F)(F)c1cccc(-c2cc(C3CCNCC3)[nH]n2)c1
i | 0.26 | C=C(C)C1Cc2c(C)nn(-c3cccc4ccccc34)c2C1 (configuration not stated)
i | 2.17 | Cc1nc2nc3c(c(=O)n2[nH]1)CCCC3
i | 0.74 | O=c1[nH]c(CN2CCN(c3ccc(F)cc3)CC2)nc2ccccc12
i | 1.83 | C#CCSc1nsc(SCC#C)c1C#N
i | 0.61 | COc1ccc(Cc2nnc(NC(=O)c3ccccc3F)s2)cc1OC
i | 0.2 | CCOc1ccccc1CNCc1ccc(C(=O)O)cc1
i | -0.99 | Cc1ccc(N(Cc2cc3ccc(C)cc3[nH]c2=O)C(=O)c2ccco2)c(C)c1

(cont.)
KCNQ2 block | KCNQ2 block baseline | compound
i | -0.04 | Cc1ccc(CNS(=O)(=O)c2c(C(=O)N3CCCCC3)c(C)n(C)c2C)o1
i | 0.01 | COc1ccccc1NS(=O)(=O)c1cc(C(=O)NCC(c2cccs2)N2CCOCC2)ccc1C (configuration not stated)
i | -0.24 | CCOC(=O)CC(NS(=O)(=O)c1ccc2[nH]cc(C(=O)O)c(=O)c2c1)c1ccc(OCC)c(OC)c1 (configuration not stated)
i | 0.01 | CCCCCC(=O)Nc1nc(C)c(-c2csc(Nc3cc(Cl)ccc3C)n2)s1
i | 2.53 | O=c1[nH][nH]c(-c2ccccc2)c1C=Nc1cccc(Cl)c1
i | 0.72 | CCCNC(=O)N1CCC(c2ccc3c(c2)OCO3)CC1
i | -0.02 | COc1cccc(C(=O)NCCN2CCN(c3ccccc3)CC2)c1
i | -0.31 | Fc1ccc(-n2cc(CNCCc3cccnc3)c(-c3ccccc3Cl)n2)cc1
i | -1.86 | CCn1cc(CN2CCC(n3nccc3NC(=O)C3CCCC3)CC2)c(C)n1
i | 0.5 | Nc1c(C(=O)NCCC2=CCCCC2)sc2ccc(S(=O)(=O)N3CCCCC3)cc12
i | -2.04 | COc1cccc(OC)c1OCCN1CCN(C(c2ccccc2)c2ccccc2)CC1
i | -0.72 | Clc1ccccc1CSc1nnc(-c2cccnc2)n1Cc1ccco1
i | 1.82 | CCOC(=O)C1=C(C)NC(=O)NC1c1ccc(NC(C)=O)cc1 (configuration not stated)
i | 0.03 | COC(=O)c1cn(C(=O)c2ccc(OC)cc2)c2ccccc12
i | -1.46 | COC(=O)c1sccc1NC(=O)c1ccc(C)o1

More records.
KCNQ2 block | KCNQ2 block baseline | compound
i | 0.23 | O=C(Nc1ccon1)C1CCN(S(=O)(=O)c2cccs2)CC1
i | 1.68 | COc1cc(/C=C/C(=O)OCC(=O)Nc2oc(C)c3c(C)n[nH]c(=O)c23)ccc1OC(F)F
i | -1.88 | Cc1oc2c(CN3CCCC3)c(O)ccc2c(=O)c1Oc1ccccc1Br
i | 1.36 | O=C1CCCC(O)=C1C1C2=C(CCCC2=O)OC2=C1C(=O)CCC2
i | -0.7 | CC(=O)c1c(C)[nH]c(C(=O)N(CCc2ccccc2)Cc2ccccc2)c1C
i | -0.78 | COc1ccc(C2CC(c3ccc(Br)cc3)=NN2C(=O)CSC2=NN3CCCC(=O)N=C3S2)cc1 (configuration not stated)
i | -0.43 | S=c1[nH]nc(CNc2cccc(Cl)c2)o1
i | -1.76 | CCCn1c(C)cc(-c2csc(N)n2)c1C
i | 0.66 | CCOc1cc(CNc2ccc3c(c2)CCC3)ccc1O
i | 0.19 | CSCC[C@H](NC(=O)OC(C)(C)C)C(=O)N/N=C/c1cccc2nccnc12
i | -0.69 | COc1cccc(-c2noc(-c3ccc(Cl)nc3)n2)c1
i | 0.12 | O=S(=O)(c1ccccc1C(F)(F)F)N1CCC(n2cnc3ccccc32)CC1
i | -0.38 | O=C1CCCS(=O)(=O)c2ccccc21
i | -0.22 | Cc1cc2nnn(-c3nnc(-c4ccccc4)c4ccccc34)c2cc1C
i | -1.91 | CCc1nn(C(CC)C(=O)NCc2cccs2)c(=O)c2cc3occc3n12 (configuration not stated)

7 entries from above, reformatted.
canonical_smiles	KCNQ2 block	KCNQ2 block baseline
COc1cc(/C=C/C(=O)OCC(=O)Nc2oc(C)c3c(C)n[nH]c(=O)c23)ccc1OC(F)F	i	1.68
S=c1[nH]nc(CNc2cccc(Cl)c2)o1	i	-0.43
Cc1cc2nnn(-c3nnc(-c4ccccc4)c4ccccc34)c2cc1C	i	-0.22
CCOc1cc(CNc2ccc3c(c2)CCC3)ccc1O	i	0.66
O=C1CCCC(O)=C1C1C2=C(CCCC2=O)OC2=C1C(=O)CCC2	i	1.36
Cc1oc2c(CN3CCCC3)c(O)ccc2c(=O)c1Oc1ccccc1Br	i	-1.88
O=C1CCCS(=O)(=O)c2ccccc21	i	-0.38

Remaining list, next part
KCNQ2 block | KCNQ2 block baseline | compound
i | 2.4 | CCOC(=O)C1CCCN(Cc2nc(Cc3cccc(F)c3)no2)C1 (configuration not stated)
i | -3.9 | Cc1nc2cc(NC(=O)COc3ccccc3C#N)ccc2n1-c1ccccc1
i | -0.5 | CC(C)CCCCCCNC(=S)Nc1ccc(S(=O)(=O)N2CCOCC2)cc1
i | 0.01 | O=C(CP(=O)(c1ccccc1)c1ccccc1)Nc1nc2ccccc2s1
i | -1.91 | O=C(N/N=C/c1cccnc1)c1cc(Br)ccc1O
i | 1.26 | O=S(=O)(NCCc1cccs1)c1ccc(Br)cc1
i | 1.55 | O=C(Cc1ccc(-n2c(=O)c3ccccc3n(Cc3ccccc3F)c2=O)cc1)NCC1CCCO1 (configuration not stated)
i | -2.17 | Cc1cc(C2C(=O)C(C(=O)c3ccc(Cl)cc3)C(=O)CC2(C)C)on1 (configuration not stated)
i | -1.57 | COc1ccc(C)c2sc(N(CCCN(C)C)C(=O)c3ccc(S(=O)(=O)N(C)C)cc3)nc12
i | 3.37 | O=C(CNc1cc(S(=O)(=O)N2CCOCC2)ccc1NCC1CCCO1)Nc1ccc(C(F)(F)F)cc1 (configuration not stated)
i | 0.05 | COc1ccccc1CN1C[C@@H]2C[C@@H](c3[nH]c4ccc(C)cc4c3C)N3CCC[C@@]23C1=O
i | 0.82 | CCOc1ccc2nc(COC(=O)c3cccs3)c(C(C)=O)[n+]([O-])c2c1
i | -1.24 | CC1(C)OC(=O)C(=CNC(CO)C(=O)O)C(=O)O1 (configuration not stated)
i | 0.27 | O=c1cc(CSc2ccc(S(=O)(=O)N3CCCCC3)cn2)nc2sccn12
i | -1.38 | Cc1c(Cl)cccc1NC(=S)N1CCCN(Cc2ccccc2F)C1

Single values from the list.
Under KCNQ2 block baseline, O=C(N/N=C/c1cccnc1)c1cc(Br)ccc1O has -1.91
Under KCNQ2 block baseline, O=C(Cc1ccc(-n2c(=O)c3ccccc3n(Cc3ccccc3F)c2=O)cc1)NCC1CCCO1 (configuration not stated) has 1.55
Under KCNQ2 block baseline, O=C(CP(=O)(c1ccccc1)c1ccccc1)Nc1nc2ccccc2s1 has 0.01
Under KCNQ2 block baseline, COc1ccccc1CN1C[C@@H]2C[C@@H](c3[nH]c4ccc(C)cc4c3C)N3CCC[C@@]23C1=O has 0.05
Under KCNQ2 block baseline, O=C(CNc1cc(S(=O)(=O)N2CCOCC2)ccc1NCC1CCCO1)Nc1ccc(C(F)(F)F)cc1 (configuration not stated) has 3.37

Next section:
KCNQ2 block | KCNQ2 block baseline | compound
i | -0.96 | O=C(Nc1cccc(F)c1)c1ccco1
i | -0.87 | O=S(=O)(Nc1ncccn1)c1ccc(NC(=S)NCCc2ccccc2)cc1
i | 0.09 | COc1ccc(C(=O)c2c(C)oc3cc([N+](=O)[O-])c(O)c([N+](=O)[O-])c23)cc1
i | 1.31 | CCOC(=O)COc1ccc(S(=O)(=O)NCC2CCCO2)cc1 (configuration not stated)
i | 0.09 | CCc1nc(SCc2ccccc2C#N)n[nH]1
i | 1.36 | O=C(COC(=O)CCc1c[nH]c(=O)[nH]1)Nc1ccccc1Cl
i | -0.01 | CC(=O)c1cc2c(cc1NC(=O)c1cc(C)nn1-c1ccccc1)OCO2
i | -1.41 | CC(C)(C)C(=O)Nc1nnc(-c2ccccc2)c(-c2ccccc2)n1
i | -0.74 | O=C(NC1CCCCC1)c1c(O)nc2sccn2c1=O
i | 1.83 | CCCCn1c(C)nc2c(=O)n(C)c(=O)[nH]c21
i | -0.87 | Cc1cc(C)c(SCCc2ccncc2)c(C)c1
i | 0.37 | CCCNC(=O)CN(c1ccc(F)c(Cl)c1)S(C)(=O)=O
i | -0.11 | C=CCn1c(O)c(N=Nc2nc3ccccc3c(=O)n2-c2ccccc2)c2ccccc21
i | -0.42 | COc1cc(/C=C2/C(=O)NN(c3cccc(C)c3)C2=O)ccc1OC(=O)c1ccco1
i | 1.27 | Cc1ccc(Cl)cc1NC(=O)COC(=O)c1ccc(N2CCCC2)c([N+](=O)[O-])c1

(cont.)
KCNQ2 block | KCNQ2 block baseline | compound
i | -1 | CCCCC[n+]1ccn(C2=C([O-])c3ccccc3C(=O)/C2=N\S(=O)(=O)c2ccc(Cl)cc2)c1
i | -0.92 | O=C(C1=C(O)C(=O)N(c2ncccn2)C1c1cccc(Cl)c1)c1ccco1 (configuration not stated)
i | 0.24 | CCOC(=O)N=Nc1c(O)n(C)c2ccccc12
i | 0.01 | Nc1ccn(Cc2ccc(F)cc2)n1
i | -1.47 | COc1ccc(CCNC(=O)COC(=O)C23CC4CC(CC(C4)C2)C3)cc1
i | 1.18 | COc1ccc(S(=O)(=O)Cc2ccc(C(=O)N3CCN(Cc4ccccc4)CC3)o2)cc1
i | -0.5 | O=C(CCn1c(SCC(=O)NCc2ccco2)nc2ccccc2c1=O)NCCc1ccccc1
i | -1.36 | O=C(CCC(=O)N1CCN(S(=O)(=O)c2ccccc2)CC1)NC1CCCc2ccccc21 (configuration not stated)
i | 0.38 | Cc1c2cn[nH]c(=O)c2c(C)n1Cc1ccc(F)cc1
i | -1.17 | Cc1cc(C)n(-c2ccc(C(=O)OCC(=O)Nc3ccccc3[N+](=O)[O-])cc2)n1
i | -1.14 | CCOc1ccc2[nH]c(C(=O)N/N=C/c3ccc(OC)cc3)cc2c1
i | -0.01 | O=[N+]([O-])c1c(NCCCO)cc(Sc2nc3ccccc3s2)c2nonc12
i | 0.21 | COC(=O)/C=C(\C)NC(=O)c1cccs1
i | 0.63 | CN1CCN(C(=O)C2=C[C@H](c3ccccc3)C[C@H](OCc3ccc(CO)cc3)O2)CC1
i | 0.6 | Cc1cc(-c2n[nH]c(=S)n2/N=C/c2ccc(Br)s2)n[nH]1

Next results
KCNQ2 block | KCNQ2 block baseline | compound
i | -0.98 | CCOc1c(C)cc(-c2ncccc2O)cc1C
i | 1.52 | CN(C)C(=O)NC1CCCCCCCCCCC1
i | -0.32 | COC(=O)c1ccc(C)c(NC(=O)C(CCSC)NC(=O)c2cc(OC)c(OC)c(OC)c2)c1 (configuration not stated)
i | 1.52 | COc1ccccc1NC(=O)CSc1nc(O)cc(=O)n1-c1ccccc1OC
i | -0.06 | Cc1n[nH]c(=O)c2c(NC(=O)COC(=O)/C=C/c3cccc(C(F)(F)F)c3)oc(C)c12
-6.44* | 1.59* | O=C(c1cc(-c2ccc(Br)cc2)nc2ccccc12)N1CCC1
i | -1.45 | Cc1cc(C)c2c(-c3ccc(F)cc3)c(C#N)c(=O)n(C)c2n1
i | -0.33 | Cc1cccc(N=Nc2c(N)n[nH]c2N)c1
i | 1.42 | O=C(CCCC(=O)c1ccc(F)cc1)c1ccc(F)cc1
i | 2.21 | CCOc1c(CNCc2ccc(C(=O)O)cc2)cccc1OC
i | 0.08 | Cc1cccc(NC(=O)c2cnc3sccn3c2=O)c1C
i | 0.68 | COC(=O)c1c(NC(=O)CSc2nc3ccccc3c(=O)n2Cc2ccco2)sc(C)c1C
i | 0.92 | CCOC(=O)C1=C(Cn2cnc3ccccc32)NC(=O)NC1c1ccc(OC)cc1 (configuration not stated)
i | -0.36 | COc1cc(NC(=O)[C@@H](NC(=O)c2ccco2)C(C)C)c(OC)cc1NC(=O)c1ccccc1
i | -0.58 | O=C(NCCc1ccccc1)C(=O)NCC1OCCCN1S(=O)(=O)c1ccc(F)cc1 (configuration not stated)

The list continues.
KCNQ2 block | KCNQ2 block baseline | compound
i | -0.05 | COCCCNC(=O)COc1ccc2oc3c(c2c1)CCCC3
i | -1.19 | Cc1cccc(OCCSc2nncn2C)c1
i | -1.23 | CCC(=O)Nc1ccc(C(=O)NNC(=O)c2cccc(C)c2)cc1
i | -1.11 | O=C(Oc1ccc(N(Cc2cccs2)C2=NS(=O)(=O)c3ccccc32)cc1)c1ccccc1
i | 0.32 | O=C(NCC1(c2ccccc2)CCCC1)C(=O)N1CCOCC1
i | -0.2 | COc1ccc(CCNC(=O)c2c(C)cc(=O)oc2C)cc1OC
i | 0.16 | CC(=O)COc1ccc2c(C)c(C)c(=O)oc2c1
-7.43* | -1.04* | COC(=O)C1=CN(CCOC23CC4CC(CC(C4)C2)C3)C=C(C(=O)OC)C1c1ccsc1
i | -0.6 | CS(=O)(=O)n1nc(NCc2cccs2)nc1NCc1cccs1
i | 0.83 | COc1ccccc1-c1coc2c(CN3C(C)CCCC3C)c(O)ccc2c1=O (configuration not stated)
i | 0.92 | COC(=O)/C=C1/S/C(=N/NC(=O)c2ccc(Cl)cc2Cl)NC1=O
i | 0.69 | O=C(CCN1C(=O)c2cccc3cccc(c23)C1=O)NC1CCS(=O)(=O)C1 (configuration not stated)
i | 1.38 | Cc1nc2cc(Nc3ccncc3)ccc2s1
i | 0.02 | CCOc1nc(NC2CCCC2)nc(N2CCC(C)CC2)n1
i | 1.41 | COc1cccc(NC(=O)Nc2ccc3nc(C)c(C)nc3c2)c1
